# Assay outcomes (PubChem BioAssay)
# FGF22 binding = FGF22 (human) thermal shift binding | Q9HCT0 | calls only at 9.99 µM | actives 1.5% (n = 340,000) | recombinant FGF22 thermal shift, SYPRO orange fluorescence; percent of sucrose octasulfate shift, DMSO zero;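 active means melting point raised past a set limit in the mean and every replicate; three in four hits are not shown here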
# Target sequence (Q9HCT0 whole entry, looked up): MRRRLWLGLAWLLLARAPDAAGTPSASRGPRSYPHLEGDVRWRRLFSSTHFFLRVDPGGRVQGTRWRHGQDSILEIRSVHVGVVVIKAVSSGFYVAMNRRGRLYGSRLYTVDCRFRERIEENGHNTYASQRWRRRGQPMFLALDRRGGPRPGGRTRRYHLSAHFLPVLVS
# Calls only; i = inactive. This is a subset (hit frequency here may not be typical).
SMILES,FGF22 binding
CO[C@@H]1CN(C)C(=O)c2cc(NS(=O)(=O)c3ccc(Oc4ccccc4)cc3)ccc2OC[C@H](C)NC[C@@H]1C,i
COc1cccc(S(=O)(=O)N[C@@H]2CC[C@H](CCNC(=O)Cc3ccncc3)O[C@H]2CO)c1,i
CCCC(=O)Nc1ccc2c(c1)C(=O)N(C)[C@H]1CC[C@@H](CC(=O)NCC3CC3)O[C@H]1CO2,i
COc1ccc(S(=O)(=O)Nc2ccc3c(c2)C(=O)N([C@H](C)CO)C[C@H](C)[C@H](CN(C)C(=O)Nc2c(C)noc2C)OCCCC[C@@H](C)O3)cc1,i
COCC(=O)N1CCCCN2[C@H](CO)[C@H](c3ccc(-c4ccc(F)cc4)cc3)[C@H]2C1,i
COCC(=O)N(C)C[C@H]1Oc2cc(-c3cncnc3)ccc2S(=O)(=O)N([C@H](C)CO)C[C@H]1C,i
CCCNC(=O)C[C@H]1C[C@H]2c3cc(NC(=O)COC)ccc3O[C@H]2[C@H](CO)O1,i
CCN1[C@H](C(=O)NCc2ccccc2)[C@@H](CO)[C@@H]2Cn3c(ccc(-c4ccccc4)c3=O)[C@@H]21,i
C[C@@H]1CN([C@H](C)CO)C(=O)c2cc(-c3cccc(F)c3)cnc2O[C@H]1CN(C)Cc1ccccc1,i
Cc1noc(C)c1S(=O)(=O)N(C)C[C@H]1OCCCC[C@@H](C)Oc2ccc(NC(=O)NC3CCCCC3)cc2C(=O)N([C@@H](C)CO)C[C@@H]1C,i
O=C(C[C@@H]1C[C@@H]2c3cc(NS(=O)(=O)c4ccc(F)cc4)ccc3O[C@@H]2[C@H](CO)O1)NCc1ccc(Cl)cc1,i
C[C@@H]1CN([C@@H](C)CO)C(=O)c2cc(NS(=O)(=O)c3cccs3)ccc2O[C@@H]1CN(C)S(C)(=O)=O,i
C[C@H](CO)N1C[C@H](C)[C@H](CN(C)C(=O)NC2CCCCC2)Oc2ccc(NC(=O)Cc3cn(C)c4ccccc34)cc2CC1=O,i
C[C@H](CO)N1C[C@H](C)[C@@H](CN(C)C(=O)c2ccncc2)OCCCC[C@H](C)Oc2ccc(NS(C)(=O)=O)cc2C1=O,i
C[C@H]1CCCCO[C@H](CN(C)C(=O)Nc2ccccc2)[C@@H](C)CN([C@@H](C)CO)C(=O)c2cc(NC(=O)Nc3ccc(C(F)(F)F)cc3)ccc2O1,i
C[C@H](CO)N1C[C@H](C)[C@H](CN(C)C(=O)Cc2ccccc2)OCCCC[C@H](C)Oc2ccc(NC(=O)Nc3cccc4ccccc34)cc2C1=O,i
CNC[C@@H]1Oc2ccc(NS(=O)(=O)c3ccc(C)cc3)cc2CC(=O)N([C@@H](C)CO)C[C@H]1C,i
COCC(=O)N1[C@@H]2CN(C(=O)C3CC3)c3ccccc3[C@@H]2[C@@H]1CO,i
CCC(=O)N(C)C[C@H]1Oc2ncc(/C=C/c3ccccc3)cc2C(=O)N([C@@H](C)CO)C[C@H]1C,i
O=C(NCC1CC1)[C@H]1[C@H](CO)[C@H]2Cn3c(ccc(-c4ccc(F)cc4)c3=O)[C@@H]1N2,i
O=C(Cc1ccccn1)NCC[C@H]1CC[C@H](NS(=O)(=O)c2ccc(Cl)cc2)[C@@H](CO)O1,i
CC(=O)N1CCCCN2[C@H](CO)[C@@H](c3ccc(-c4cccc(C(=O)N(C)C)c4)cc3)[C@H]2C1,i
Cc1noc(C)c1S(=O)(=O)Nc1ccc2c(c1)C(=O)N([C@H](C)CO)C[C@H](C)[C@H](CN(C)C(=O)c1ccncc1)OCCCC[C@H](C)O2,i
CO[C@H]1CN(C)C(=O)c2cc(NS(=O)(=O)c3ccc(C)cc3)ccc2OC[C@H](C)N(C(=O)NC(C)C)C[C@@H]1C,i
O=C(C(=O)N1CCC(CNS(=O)(=O)c2ccc(OC(F)(F)F)cc2)CC1)c1cc2ccccc2o1,i
C[C@H]1CN([C@@H](C)CO)C(=O)c2cc(/C=C/c3ccccc3)cnc2O[C@@H]1CN(C)C(=O)C1CCC1,i
CC(C)C#Cc1ccc2c(c1)O[C@@H](CN(C)C(=O)NC(C)C)[C@@H](C)CN([C@@H](C)CO)S2(=O)=O,i
Cc1noc(C)c1NC(=O)NCC[C@@H]1CC[C@H](NC(=O)c2ccncc2)[C@@H](CO)O1,i
C[C@@H]1CN([C@H](C)CO)C(=O)c2cc(NC(=O)C3CCCCC3)ccc2O[C@@H]1CN(C)C(=O)Nc1ccc2c(c1)OCO2,i
C[C@@H]1CCCCO[C@@H](CN(C)C(=O)Nc2ccc(C(F)(F)F)cc2)[C@H](C)CN([C@@H](C)CO)C(=O)c2cc(NC(=O)c3ccccc3)ccc2O1,i
C[C@@H]1CN([C@@H](C)CO)C(=O)c2cc(NS(C)(=O)=O)ccc2O[C@@H](C)CCCCO[C@@H]1CN(C)C(=O)Nc1ccc(F)cc1,i
OCCC(N1CCOCC1)C(O)(c1ccccc1)c1ccccc1 (stereo unspecified),i
O=C(C[C@H]1C[C@H]2c3cc(NS(=O)(=O)c4ccc(F)cc4)ccc3O[C@H]2[C@@H](CO)O1)NCc1ccccn1,i
O=C(Nc1ccc(C(F)(F)F)cc1)N[C@H]1CC[C@@H](CC(=O)N2CCCCC2)O[C@@H]1CO,i
CCCC#Cc1cnc2c(c1)C(=O)N([C@H](C)CO)C[C@@H](C)[C@@H](CN(C)C(=O)Nc1cc(F)ccc1F)O2,i
C[C@@H]1CN([C@H](C)CO)C(=O)c2cc(NC(=O)c3ccncc3)ccc2O[C@H]1CN(C)C(=O)Nc1ccc(C(F)(F)F)cc1,i
C[C@@H]1CN([C@@H](C)CO)C(=O)c2ccccc2-c2ccccc2CO[C@@H]1CN(C)Cc1ccc(O)cc1,i
O=C(C[C@@H]1C=C[C@@H](NC(=O)Nc2cc(F)ccc2F)[C@@H](CO)O1)NCCCN1CCOCC1,i
Cc1noc(C)c1NC(=O)Nc1ccc2c(c1)C(=O)N([C@H](C)CO)C[C@H](C)[C@@H](CN(C)C)O2,i
COCC#Cc1ccc2c(c1)O[C@H](CN(C)Cc1ccccn1)[C@@H](C)CN([C@@H](C)CO)S2(=O)=O,i

# Two neighbouring compounds from above, quoted:
SMILES,FGF22 binding
Cc1noc(C)c1NC(=O)Nc1ccc2c(c1)C(=O)N([C@H](C)CO)C[C@H](C)[C@@H](CN(C)C)O2,i
COCC#Cc1ccc2c(c1)O[C@H](CN(C)Cc1ccccn1)[C@@H](C)CN([C@@H](C)CO)S2(=O)=O,i

# The listing picks up; the four compounds before the break are reprinted first.
SMILES,FGF22 binding
C[C@@H]1CN([C@@H](C)CO)C(=O)c2ccccc2-c2ccccc2CO[C@@H]1CN(C)Cc1ccc(O)cc1,i
O=C(C[C@@H]1C=C[C@@H](NC(=O)Nc2cc(F)ccc2F)[C@@H](CO)O1)NCCCN1CCOCC1,i
Cc1noc(C)c1NC(=O)Nc1ccc2c(c1)C(=O)N([C@H](C)CO)C[C@H](C)[C@@H](CN(C)C)O2,i
COCC#Cc1ccc2c(c1)O[C@H](CN(C)Cc1ccccn1)[C@@H](C)CN([C@@H](C)CO)S2(=O)=O,i
Cc1noc(C)c1S(=O)(=O)N(C)C[C@@H]1OCCCC[C@H](C)Oc2ccc(NC(=O)c3ccccc3)cc2C(=O)N([C@H](C)CO)C[C@H]1C,i
O=C(CC(F)(F)F)N1C[C@@H]2[C@H](c3ccccc31)[C@@H](CO)N2CC1CCOCC1,i
COc1ccccc1-c1ccc([C@@H]2[C@H](CO)N3CCCCN(C(=O)c4ccncc4)C[C@@H]23)cc1,i
C[C@@H]1CN([C@H](C)CO)C(=O)Cc2cc(NC(=O)Nc3cccc4ccccc34)ccc2O[C@@H]1CN(C)C(=O)Nc1cccc2ccccc12,i
Cc1noc(C)c1NC(=O)N(C)C[C@@H]1Oc2ccc(NS(C)(=O)=O)cc2C(=O)N([C@H](C)CO)C[C@H]1C,i
COCC#Cc1cnc2c(c1)C(=O)N([C@@H](C)CO)C[C@@H](C)[C@H](CN(C)Cc1ccc3c(c1)OCO3)O2,i
C[C@@H]1CN([C@H](C)CO)C(=O)c2cccc(N(C)C)c2O[C@H]1CN(C)C(=O)NC1CCCCC1,i
Cc1cccc(S(=O)(=O)N[C@@H]2CC[C@H](CCNC(=O)CCN3CCCCC3)O[C@@H]2CO)c1,i
C[C@H](CO)N1C[C@H](C)[C@@H](CN(C)C(=O)Nc2ccc(F)cc2)Oc2ccc(NS(C)(=O)=O)cc2CC1=O,i
CO[C@H]1CN(C)C(=O)c2cc(NS(=O)(=O)c3cccc(C)c3)ccc2OC[C@@H](C)NC[C@H]1C,i
C[C@@H]1CCCCO[C@@H](CN(C)Cc2ccc(C(F)(F)F)cc2)[C@@H](C)CN([C@H](C)CO)C(=O)c2cc(NC(=O)C3CCCCC3)ccc2O1,i
COc1ccccc1CNC(=O)C[C@@H]1C[C@@H]2c3cc(NC(=O)CC4CC4)ccc3O[C@@H]2[C@H](CO)O1,i
CC(C)c1cn(CC[C@@H]2CC[C@H](NS(=O)(=O)c3ccccc3)[C@H](CO)O2)nn1,i
CNC[C@@H]1Oc2ccc(NC(=O)Nc3cccc4ccccc34)cc2CC(=O)N([C@H](C)CO)C[C@@H]1C,i
O=C(NCC1CC1)[C@@H]1[C@@H](CO)[C@@H]2Cn3c(ccc(-c4ccccc4F)c3=O)[C@H]1N2Cc1ccccc1,i
CC(=O)NC[C@@H]1[C@@H](c2ccc(C3=CCCC3)cc2)[C@H](CO)N1Cc1cccnc1,i
Cc1ccc(S(=O)(=O)N(C)C[C@H]2OCCCC[C@H](C)Oc3ccc(NC(=O)Nc4ccccc4)cc3C(=O)N([C@H](C)CO)C[C@H]2C)cc1,i
CCCNC(=O)Nc1ccc2c(c1)C(=O)N(C)C[C@@H](OC)[C@H](C)CN(S(C)(=O)=O)[C@H](C)CO2,i
O=C(c1ccccc1)N1C[C@@H]2[C@H](c3ccccc31)[C@@H](CO)N2C(=O)c1ccccn1,i
C[C@@H]1CN([C@H](C)CO)C(=O)Cc2cc(NC(=O)CCN3CCOCC3)ccc2O[C@@H]1CN(C)S(=O)(=O)c1ccc(Cl)cc1,i
COCC(=O)N(C)C[C@H]1Oc2ncc(C#Cc3ccc(F)cc3)cc2C(=O)N([C@@H](C)CO)C[C@@H]1C,i
COc1ccccc1CNC(=O)C[C@@H]1C[C@@H]2c3cc(NS(=O)(=O)c4ccc(F)cc4)ccc3O[C@@H]2[C@@H](CO)O1,i
CNC[C@@H]1Oc2c(NS(=O)(=O)c3ccc(F)cc3)cccc2C(=O)N([C@@H](C)CO)C[C@@H]1C,i
O=C(c1cccc(F)c1)N1CC[C@@H]2[C@@H](CO)Nc3ccc(C#Cc4ccc(F)cc4)cc3[C@@H]21,i
C[C@@H]1CCCCO[C@H](CN(C)S(=O)(=O)c2ccccc2)[C@@H](C)CN([C@H](C)CO)C(=O)c2cc(NC(=O)Nc3ccc4c(c3)OCO4)ccc2O1,i
COCCCNC(=O)c1nnn2c1nc(N)c1cc(Cl)ccc12,i
COc1ccc(NC(=O)N[C@H]2CC[C@@H](CCn3cc(-c4ccccc4F)nn3)O[C@H]2CO)cc1,i
COc1ccc(NC(=O)N(C)C[C@@H]2OCCCC[C@@H](C)Oc3ccc(NC(=O)NC(C)C)cc3C(=O)N([C@H](C)CO)C[C@H]2C)cc1,i
COc1ccc(S(=O)(=O)Nc2ccc3c(c2)C(=O)N([C@@H](C)CO)C[C@H](C)[C@@H](CN(C)S(=O)(=O)c2ccc(OC)cc2)O3)cc1,i
C[C@H]1CN([C@@H](C)CO)C(=O)c2cccc(NC(=O)c3cnccn3)c2O[C@@H]1CN(C)CC1CC1,i
O=C(Nc1ccccc1)N1CCCCN2[C@H](CO)[C@H](c3ccc(-c4ccccc4)cc3)[C@@H]2C1,i
CN1c2ccc(-c3cccc(F)c3)cc2[C@H]2[C@H](CCN2C(=O)C2CC2)[C@@H]1CO,i
COCC#Cc1ccc2c(c1)O[C@@H](CN(C)Cc1ccc3c(c1)OCO3)[C@@H](C)CN([C@H](C)CO)S2(=O)=O,i
C[C@H](CO)N1C[C@H](C)[C@@H](CN(C)C(=O)C2CCCCC2)Oc2ncc(-c3ccccc3)cc2C1=O,i
CCS(=O)(=O)N[C@H]1CC[C@@H](CC(=O)NCc2ccc(Cl)cc2)O[C@@H]1CO,i
O=C(C[C@H]1CC[C@H]2[C@@H](COC[C@H](O)CN2S(=O)(=O)c2cccc(Cl)c2)O1)N1CCOCC1,i
COc1cccc(S(=O)(=O)N[C@@H]2CC[C@H](CC(=O)NCc3ccc(F)cc3)O[C@H]2CO)c1,i
C[C@H]1CN([C@@H](C)CO)C(=O)c2cc(NC(=O)Nc3ccc4c(c3)OCO4)ccc2O[C@H]1CN(C)Cc1ccc(C(F)(F)F)cc1,i
C[C@@H]1CN([C@H](C)CO)C(=O)c2cccc(NC(=O)Nc3cccc4ccccc34)c2O[C@@H]1CN(C)Cc1ccc(C(=O)Nc2ccccc2N)cc1,i
C[C@@H]1CN([C@@H](C)CO)C(=O)c2cc(NS(=O)(=O)c3ccc(F)cc3)ccc2O[C@H]1CN(C)C(=O)Nc1ccc(C(F)(F)F)cc1,i
C[C@H]1CN([C@@H](C)CO)C(=O)c2cc(NC(=O)Cn3cnnn3)ccc2O[C@@H]1CN(C)S(=O)(=O)c1ccc(F)cc1,i
O=C(Nc1ccccc1F)N1CCCCN2[C@H](CO)[C@@H](c3ccc(C4=CCCCC4)cc3)[C@H]2C1,i
N#Cc1ccc(-c2ccc3c(c2)[C@@H]2[C@@H](CCN2S(=O)(=O)c2ccccc2F)[C@H](CO)N3)cc1,i

# Arranged by formula weight (smallest number first): some entries from above
SMILES,FGF22 binding
O=C(Nc1ccccc1F)N1CCCCN2[C@H](CO)[C@@H](c3ccc(C4=CCCCC4)cc3)[C@H]2C1,i
C[C@H]1CN([C@@H](C)CO)C(=O)c2cc(NC(=O)Nc3ccc4c(c3)OCO4)ccc2O[C@H]1CN(C)Cc1ccc(C(F)(F)F)cc1,i
C[C@@H]1CCCCO[C@H](CN(C)S(=O)(=O)c2ccccc2)[C@@H](C)CN([C@H](C)CO)C(=O)c2cc(NC(=O)Nc3ccc4c(c3)OCO4)ccc2O1,i
